HPGD inh – HPGD (human) dehydrogenase inhibition; P15428; AID 894; purified HPGD, NADH fluorescence kinetic, PGE2 substrate; 150,000 tested, 4.3% active; Potency, µM, inactives show top-dose activity change, negative = inhibition, most hits filed as inhibitors; active = well fitted inhibition curve with a large enough effect (not every such curve was filed as active); inconclusive = small, poorly fitted or top-dose-only effect, or another doubt; inactive = no such curve, though single readings can be large or run the other way;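 note: top concentration of the series not given in the record; plate controls included wells without enzyme; inactives centre near -10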
Target sequence (P15428 whole entry, looked up): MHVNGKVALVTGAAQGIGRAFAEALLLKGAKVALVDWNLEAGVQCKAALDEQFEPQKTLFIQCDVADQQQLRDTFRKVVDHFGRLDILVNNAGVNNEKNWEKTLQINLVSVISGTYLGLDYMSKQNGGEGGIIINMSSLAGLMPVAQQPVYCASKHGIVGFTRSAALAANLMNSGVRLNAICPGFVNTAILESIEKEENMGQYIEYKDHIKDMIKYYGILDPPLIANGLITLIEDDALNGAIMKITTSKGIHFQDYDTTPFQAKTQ
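NADH formation kinetics: reaction with 30 uM PGE2 and 1 mM NAD+ (final), 20 nM enzyme, Tris-HCl pH 8 with Tween 20, after 15 min compound preincubation at room temperature. Fluorescence change, last versus first of five reads.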
* marks the source's active call; other numbers are inactive results; ? = inconclusive. % is set by controls: 0 for no effect and ±100 for the full control effect; potency is the fitted concentration of half-maximal effect. Some of the compounds tested, so the mix of outcomes need not match the whole.

SMILES | HPGD inh
COc1cc(C2NC(=O)NC(C)=C2C(=O)OCC2CCCO2)ccc1O (stereo not drawn) | -9%
COc1ccc2oc(-c3ccc(NC(=O)c4ccc(N5CCOCC5)c([N+](=O)[O-])c4)cc3)nc2c1 | -10%
Cc1cc(NC(=O)COC(=O)CSc2nc3cc(Cl)ccc3n2Cc2ccccc2)no1 | -1%
O=S(=O)(N1CCCCC1)N1CCNCC1 | -21%
O=C(Nc1cccc(F)c1)C1CCN(C(=O)Cc2ccccc2)CC1 | -2%
C[C@]1(C(=O)NCC2CC2)C=C[C@@H](Cc2ccccc2)N1C(=O)c1ccccc1 | -12%
COc1ccc(N2CC(C(=O)Nc3nnc(SCC(=O)c4ccccc4)s3)CC2=O)cc1 (stereo not drawn) | ?
COc1ccc(-c2nnc(SCC(=O)c3ccc(C)o3)o2)cc1 | ?
O=c1c(-c2cccc(Cl)c2)nc2cncnc2n1Cc1ccccc1Cl | 1%
CC(C)Oc1cc(O)c2c(=O)c(-c3ccc(O)cc3)coc2c1 | ?
COCCNC(=O)NC(=O)COC(=O)C12CC3CC(CC(NC(C)=O)(C3)C1)C2 | 1%
C=C1C(N)CC2CC1C2(C)C (stereo not drawn) | -5%

Single values from the results shown:
For HPGD inh, COc1ccc2oc(-c3ccc(NC(=O)c4ccc(N5CCOCC5)c([N+](=O)[O-])c4)cc3)nc2c1 is entered as -10%
For HPGD inh, COc1cc(C2NC(=O)NC(C)=C2C(=O)OCC2CCCO2)ccc1O (stereo not drawn) is entered as -9%

The results go on.
SMILES | HPGD inh
Cc1c(NC(=O)C2CC=CCC2C(=O)O)c(=O)n(-c2ccccc2)n1C (stereo not drawn) | -2%
COc1ccccc1N1CCN(C(=O)/C=C/c2cccs2)CC1 | -14%
Cc1ccc(-n2c(SCc3cn4ccsc4n3)nc3ccccc3c2=O)cc1 | -4%
CCOc1ccc(-c2csc(NC(=O)C3CCCO3)n2)cc1 (stereo not drawn) | -25%
CCCC(=O)Nc1cccc(NC(=O)CN2CCN(c3ccccc3OC)CC2)c1 | -8%
O=C(NCC(c1cccnc1)N1CCOCC1)c1ccco1 (stereo not drawn) | -3%
O=C(Cn1cnc2c(nnn2-c2ccc(F)cc2)c1=O)N1CCCc2ccccc21 | -23%
CN(C)c1ccc(C(=O)Nc2cc(C(F)(F)F)ccc2-n2cncn2)cc1 | -23%
Cc1nn2c(NCCCN3CCOCC3)c3c(nc2c1-c1ccccc1)CCC3 | ?
Brc1ccccc1OCCOc1cccc2cccnc12 | -30%
Cc1ccc(NC(=O)COC(=O)C2CC3C=CC2C3)cc1S(=O)(=O)N1CCCCC1 (stereo not drawn) | -8%
Cc1ccc2nc(SCC(=O)c3c(C)[nH]c4ccccc34)[nH]c2c1 | -15%
COc1ccc(C(=O)Nc2cc(C)on2)cc1 | -6%
O=C(CCC(=O)NNC(=S)Nc1ccccc1)NCc1ccccc1 | -11%
Cc1c(C(=O)NCc2ccc3c(c2)OCO3)oc2ccc(S(=O)(=O)N3CCC(C)CC3)cc12 | -27%
CCOc1cc2[nH]c(=O)n(CCCCC(=O)NC3CCCCCC3)c(=O)c2cc1OCC | ?
O=C(Nc1cccc(F)c1)N1CCN(C/C=C/c2ccccc2)CC1 | -12%
O=C(CCS(=O)(=O)c1cccc2nsnc12)N1CC(=O)N(CCc2ccccc2)C(=O)C1 | -22%
Clc1ccc([C@H](Cn2ccnc2)OCc2csc3c(Cl)cccc23)c(Cl)c1 | -8%
c1ccc(OCc2nc3ccccc3s2)cc1 | -5%
CN(C)c1cc2c(Nc3ccc4c(cnn4Cc4ccccc4)c3)ncnc2cn1 | 13µM*
CCCCNC(=O)c1c(O)c2cccc3c2n(c1=O)CCC3 | -8%
COc1ccc(C(NC(=O)CNC(C)=O)C(=O)Nc2ccc3c(c2)OCCO3)cc1 (stereo not drawn) | -10%
COc1ccc(CNn2c(C)nc3ccccc3c2=O)cc1 | -19%
COc1ccc2cc(CN(Cc3ccco3)Cc3nnnn3C3CCCCC3)c(=O)[nH]c2c1 | -11%
CS(C)(=O)=NS(=O)(=O)c1ccc(Cl)cc1 | -6%
CCOC(=O)CCCNC(=O)CCNC(=O)c1ccc(OC(C)C)cc1 | -17%
COC(=O)/C(=C/c1ccc2c(c1)c1ccccc1n2C)NC(=O)c1ccccc1 | ?
Cn1c(-c2c(N)n(C3CCCC3)c3nc4ccccc4nc23)nc2ccccc21 | -11%
O=S(=O)(c1ccc(Cl)cc1)N1c2ccccc2Oc2nc3ccccc3nc21 | -13%
CCOC(=O)C1CCN(S(=O)(=O)c2ccc(CC)cc2)CC1 | -17%
CC1(C)C(C(=O)O)N2C(=O)CC2S1(=O)=O (stereo not drawn) | -4%
CCOC(=O)CN1C(=O)CN(c2ccc(C)cc2)C1=O | -1%
CCCn1nc(C(=O)Nc2ccc(S(=O)(=O)Nc3nccs3)cc2)c2ccccc2c1=O | -8%
COc1cc(OC)c(OC)cc1/C=N/n1c(C)nnc1C | ?
Cn1c(=O)[nH]c(=O)c2c1nc(Br)n2Cc1ccccc1F | -50%

Reprinted from the part before: two entries, then new ones.
SMILES | HPGD inh
COc1cc(OC)c(OC)cc1/C=N/n1c(C)nnc1C | ?
Cn1c(=O)[nH]c(=O)c2c1nc(Br)n2Cc1ccccc1F | -50%
CCN(CC)C(=O)CCSc1nnc(-c2ccncc2)o1 | -16%
O=C(NCc1ccccc1)C(c1ccc(F)cc1)N(Cc1cccs1)C(=O)c1cnccn1 (stereo not drawn) | -11%
Cc1cc(C)c(C)c(OCC(=O)N2CCOCC2)c1 | -10%
COc1ccc(C)cc1NC(=O)CN1CCN(c2ccccc2F)CC1 | -1%
O=C1c2oc3ccccc3c(=O)c2C(c2cccnc2)N1Cc1ccco1 (stereo not drawn) | -1%
O=C(Oc1ccc2ccccc2c1Br)N1CCCCCC1 | 32µM*
Cc1ccc(C(=O)COC(=O)C2CC(=O)N(c3nc(-c4ccccc4)cs3)C2)cc1 (stereo not drawn) | -11%
CCC1(CC)N([O-])C(C)=C(c2ccccc2)[N+]1=O | -4%
NC(=O)c1c(NC(NC(=O)c2ccco2)C(=O)c2ccc(Cl)cc2)sc2c1CCCC2 (stereo not drawn) | -20%
CCOC(=O)c1sc(NC(=O)/C=C/c2cnn(CC)c2C)c(C(=O)OCC)c1C | ?
CCN(CC)c1ccc(C(=O)OCC(=O)NC2CCCCC2C)cc1 (stereo not drawn) | -9%
CNC(=O)CC(C(=O)O)c1ccc(OCC(C)C)cc1 (stereo not drawn) | -8%
CCc1nnc(NC(=O)C(NS(=O)(=O)c2ccc3c(c2)OCCO3)C(C)C)s1 (stereo not drawn) | -3%
O=C1OC(Cc2ccccn2)C(=O)C1=C1SCCS1 (stereo not drawn) | -17%
Cc1ccc(O)c(-c2cc(-c3ccccc3C)[nH]n2)c1 | 22µM*
COc1ccc(C2C(C(=O)Nc3ccc4c(c3)OCCO4)c3ccccc3C(=O)N2C)cc1 (stereo not drawn) | -11%
COc1ccc(-c2cc(C#N)nc(Oc3ccc(Cl)cc3)n2)cc1 | ?
Clc1ccc(-c2onc3c2CCCC3)cc1 | -24%
Cc1cc2c(cc1C)-c1nnc(-c3ccc4ccccc4n3)n1C(C)(C)C2 | -5%
Cc1c(C(=O)O)oc2ccc(S(=O)(=O)N(CC(C)C)CC(C)C)cc12 | -11%
CCOC(=O)N1CCN(Cc2oc(CO)cc(=O)c2O)CC1 | -7%
CCSc1n[nH]c2nc3c(c(=O)n12)C1(CCCC1)Cc1ccccc1-3 | ?
CCCn1c(=O)c2ccccc2n2c(SCC(=O)NCc3cccs3)nnc12 | -9%
NC(=O)c1ccc([N+](=O)[O-])cc1SCc1ccccc1 | -5%

By substructure, the compounds so far with fluorine (7)
SMILES | HPGD inh
O=C(Nc1cccc(F)c1)C1CCN(C(=O)Cc2ccccc2)CC1 | -2%
O=C(Cn1cnc2c(nnn2-c2ccc(F)cc2)c1=O)N1CCCc2ccccc21 | -23%
CN(C)c1ccc(C(=O)Nc2cc(C(F)(F)F)ccc2-n2cncn2)cc1 | -23%
O=C(Nc1cccc(F)c1)N1CCN(C/C=C/c2ccccc2)CC1 | -12%
Cn1c(=O)[nH]c(=O)c2c1nc(Br)n2Cc1ccccc1F | -50%
O=C(NCc1ccccc1)C(c1ccc(F)cc1)N(Cc1cccs1)C(=O)c1cnccn1 (stereo not drawn) | -11%
COc1ccc(C)cc1NC(=O)CN1CCN(c2ccccc2F)CC1 | -1%

Continued.
SMILES | HPGD inh
O=C(c1cccc(F)c1)n1nnc2ccccc21 | -10%
Cc1ccc(-n2c(=O)c3c4c(sc3n(Cc3cc(=O)n5ccccc5n3)c2=O)CCC4)cc1C | ?
O=C1OCCN1C(=O)[C@H]1[C@H](c2ccc([N+](=O)[O-])cc2)C(c2ccccc2)=NN1c1ccc(Br)cc1 | -9%
O=C(Nc1ccccc1)c1ccc(S(=O)(=O)N2CCCCC2)cc1 | -13%
Cc1ccccc1S(=O)(=O)Nc1nc2ccccc2nc1N1CCc2ccccc2C1 | ?
CC(C)COC(=O)CNc1n[nH]c(=S)[nH]c1=O | -19%
COc1ccc([N+](=O)[O-])cc1NCc1ccccc1 | -21%
O=C(NCc1ccc2c(c1)OCO2)c1cc(-c2ccccc2)on1 | -17%
CC(C)(C)NC(=O)C1CCN(C(=O)c2ccc(Br)cc2)CC1 | -2%
CCn1c(SCC(=O)Nc2cc(C)on2)nc2c1c(=O)n(C)c(=O)n2C | 0%
COC(=O)C1=C(C(=O)OC)[C@@H]2N(C)c3ccccc3[C@@]23C[C@@H](C(=O)OC)N(C(C)=O)C3=N1 | -5%
Cc1cc(/C=N/NC(=O)C(O)(c2ccccc2)c2ccccc2)c(C)n1-c1ccc(C(=O)O)cc1 | -24%
COc1ccc(Oc2ncc3nc(-c4ccc(OC)cc4)c(=O)n(CCC#N)c3n2)cc1 | -11%
COc1ccc2c(c1OC)C(=O)N(c1cccc(C)c1)C2 | -2%
COc1cccc(-c2nnc(SCC(=O)N3CCCC3=O)n2-c2ccccc2)c1 | -19%
CN1CCN(S(=O)(=O)c2cccc(S(=O)(=O)c3cccc(S(=O)(=O)N4CCN(C)CC4)c3)c2)CC1 | 5%
O=C(CCS(=O)(=O)c1cccs1)N1CCN(c2ccc(F)cc2)CC1 | -3%
CCOc1ccccc1C(=O)N1CCC(n2nnc3cc(C(F)(F)F)ccc32)CC1 | -4%
CC(=O)Nc1ccc(OCC(O)CN2CCN(c3ccc(C)c(Cl)c3)CC2)cc1 (stereo not drawn) | -3%
O=C(NC(=S)NC1CCCCCCCCCCC1)c1cccnc1 | -9%
CCN(CC)C(=S)SCC(=O)c1ccc(Br)cc1 | ?
O=S(=O)(c1ccccc1)N1CCC[C@@]2(CCN(c3ncccn3)C2)C1 | -9%
O=C(O)CSCNC(=O)CC12CC3CC(CC(C3)C1)C2 | -9%
COc1ccc(C[C@H](C)NC[C@@H](O)c2ccc(O)c(NC=O)c2)cc1 | -2%

Two entries from above, as labelled records.
CCc1nnc(NC(=O)C(NS(=O)(=O)c2ccc3c(c2)OCCO3)C(C)C)s1 (stereo not drawn)
  HPGD inh: -3%
O=C1OC(Cc2ccccn2)C(=O)C1=C1SCCS1 (stereo not drawn)
  HPGD inh: -17%

New compounds follow.
SMILES | HPGD inh
Cc1nc2ccc(-c3nc4cc(N)ccc4o3)cc2[nH]1 | ?
CCOC(=O)N1CCC(NC(=O)c2cc(C(=O)NCc3cccc(Cl)c3)ccc2CO)CC1 | -2%
COc1ccc(OC)c(C(=O)CSc2nnc(-c3cccnc3)n2C)c1 | -6%
Cc1ccc(-c2nn(-c3ccccc3)cc2C(=O)Nc2cccc(S(=O)(=O)N3CCOCC3)c2)cc1 | -29%
CCOC(=O)C1CCCN(c2c(N3CCc4ccccc4C3)c(=O)c2=O)C1 (stereo not drawn) | 28µM*
O=c1c(-c2ccc(Cl)cc2)nc2cnc(Oc3ccccc3)nc2n1C1CC1 | -11%
Cc1cc(Cl)ccc1NC(=S)NCCC(c1ccccc1)c1ccccc1 | -7%
CCCCP(=O)(c1ccccn1)c1ccccn1 | -16%
CCNC(=O)CC1SC(=Nc2cccc3ccccc23)N(C)C1=O (stereo not drawn) | -13%
CC(C)(CNS(=O)(=O)c1ccc(Cl)cc1)N1CCCCC1 | -9%
CNC(=O)c1ccc2nc(NC(C)=O)sc2c1 | -14%
CCOc1ccc2nc(NC(=O)CSc3ccccc3)sc2c1 | -5%
COCCn1c(=O)c(-c2ccccc2)nc2cnc(Oc3ccccc3)nc21 | ?
CCOc1ccccc1N1CCN(C(=O)Nc2ccc(Cl)c(Cl)c2)CC1 | -10%
CCOc1ccccc1NC(=O)Cn1nnc(C(=O)Nc2ccc(C)cc2)c1N | 2%
O=C(OCc1nc2ccc(Cl)cc2n1CCO)c1ccc2c(c1)OCO2 | -23%
Cc1nc2cc(N3CCOCC3)c(NC(=O)C3CC3)cc2c(=O)n1Cc1ccccc1 | -19%
Cc1cc(NC(=O)Cn2nc(-c3ccccc3F)ccc2=O)ccc1-n1cnnn1 | -8%
Nc1nc(SCc2ccc(Cl)c(Cl)c2)n[nH]1 | -12%
O=C(NCCc1ccc(F)cc1)N1CCOCC1 | 2%
COc1cc(NC(=O)C2CCCN2C(=O)OCc2ccccc2)cc(OC)c1 (stereo not drawn) | -15%
O=C(Nc1nnc(-c2ccccc2F)s1)C1CCN(S(=O)(=O)c2ccc(Cl)cc2)CC1 | ?
O/N=C/c1cc(Br)cc(Br)c1OCc1ccccc1 | 14µM*
CCC(C)NCCOCCOc1ccc(C)cc1OC (stereo not drawn) | -10%
COc1ccc(OC)c(Nc2cc(C(=O)NCCCN3CCOCC3)c3ccccc3n2)c1 | -10%
CCc1ccc(N=c2c([N+](=O)[O-])nn(-c3ccccc3)n2O)cc1 | -14%
